# MbtI inh – inhibitors of Mycobacterium tuberculosis siderophore enzyme MbtI; purified MbtI enzyme, fluorescence intensity read-out; 0.89% of 100,000 active; inhibition, %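 (about 17 µg/mL by stock and volumes)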; P9WFX0;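 active = above 50% in both replicates, above 80% if mildly self-fluorescent; inactive = the rest, strongly fluorescent compounds included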;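 note: 0% = mean of negative and 100% = mean of positive controls; one replicate is shown; some compounds called inactive have numbers as strong as hits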
# Target sequence (P9WFX0 whole entry, looked up): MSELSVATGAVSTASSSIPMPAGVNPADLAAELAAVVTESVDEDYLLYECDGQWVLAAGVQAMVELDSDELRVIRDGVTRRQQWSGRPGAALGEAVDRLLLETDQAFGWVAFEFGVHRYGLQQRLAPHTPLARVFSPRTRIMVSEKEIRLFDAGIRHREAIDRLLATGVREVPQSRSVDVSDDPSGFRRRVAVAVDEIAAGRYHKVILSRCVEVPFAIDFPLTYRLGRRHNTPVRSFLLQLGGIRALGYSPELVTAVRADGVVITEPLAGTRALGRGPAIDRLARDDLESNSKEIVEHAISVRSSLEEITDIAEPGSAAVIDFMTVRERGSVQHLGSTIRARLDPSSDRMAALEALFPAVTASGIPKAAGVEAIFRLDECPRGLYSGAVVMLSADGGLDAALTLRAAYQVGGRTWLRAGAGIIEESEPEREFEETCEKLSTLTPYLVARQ
# MenB inh – blocks the Mycobacterium tuberculosis MenB enzyme | AID 540299 | 0.43% of 100,000 active | inhibition, %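 (about 12 µg/mL by stock and volumes)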 | MenB enzyme assay, absorbance read-out; some hits fall short of the stated cut;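 active = mean of two replicates above 30%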;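 note: 0% = no compound and 100% = wells with inactive enzyme; the first replicate is given; strong numbers were not always called active; inactives centre near -10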
# Target sequence (P9WNP5 whole entry, looked up): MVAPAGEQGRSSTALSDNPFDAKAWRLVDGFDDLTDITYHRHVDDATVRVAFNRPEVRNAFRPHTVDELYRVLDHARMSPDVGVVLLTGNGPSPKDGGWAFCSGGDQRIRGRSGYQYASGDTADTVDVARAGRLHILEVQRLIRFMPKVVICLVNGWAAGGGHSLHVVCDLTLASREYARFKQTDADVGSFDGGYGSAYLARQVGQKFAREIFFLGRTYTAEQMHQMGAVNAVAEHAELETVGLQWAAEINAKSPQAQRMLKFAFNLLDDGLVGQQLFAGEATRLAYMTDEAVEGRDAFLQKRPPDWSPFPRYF
# Polio RdRp inh – inhibitors of poliovirus RNA polymerase binding and polymerization; 0.66% of 150,000 active; % elongation, % (compound at 16.7 µg/mL); poliovirus polymerase elongation, fluorescence polarization; hits give low values; P03300; in the data active = % elongation below about 90%; note: some results filed as inactive read as strong as hits
# Polio RdRp inh intensity – also measured in Polio RdRp inh; calls as there; % elongation; measured here: total intensity read-out; formula for this scale not given here;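 total fluorescence in place of polarization; lower means less elongation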
# Numbers without * were called inactive; . = not tested or not shown.
# Start of the data: the first 3 entries, ahead of the listing:
# Results follow in this order: Polio RdRp inh	MbtI inh	MenB inh	Polio RdRp inh intensity
Cc1cc(C2(O)CSc3nc4cc(C(F)(F)F)ccc4n32)ccc1Cl (stereo not given)
  107	1	-18	111
O=C1CSC(=S)N1/N=C/c1cc(Br)cc(Br)c1O
  90*	49	-25	92*
NCCc1ccco1
  104	12	-12	113

# This part in full, from the first entry:
# Results follow in this order: Polio RdRp inh	MbtI inh	MenB inh	Polio RdRp inh intensity
Cc1cc(C2(O)CSc3nc4cc(C(F)(F)F)ccc4n32)ccc1Cl (stereo not given)
  107	1	-18	111
O=C1CSC(=S)N1/N=C/c1cc(Br)cc(Br)c1O
  90*	49	-25	92*
NCCc1ccco1
  104	12	-12	113
CC(C)(C)c1ccc(OCc2ncc(S(=O)(=O)c3ccccc3)c(N)n2)cc1
  105	-6	4	105
CC1CCCC(NS(=O)(=O)c2cccc(C(=O)O)c2)C1C (stereo not given)
  95	-9	-1	95
Cc1nc2ccccc2c(=O)n1-c1ccc(OC(F)F)cc1
  107	-3	-2	104
N#CC1=C2Sc3ccccc3N2CC1=O
  .	11	-44	.
CN(CCO)C(C(=O)Nc1ccc(F)cc1)c1ccccc1 (stereo not given)
  102	-7	-33	96
CN1C(=O)/C(=C/c2cn(Cc3ccccc3)c3ccccc23)c2ccccc21
  100	20	-87	101
O=C(NCc1ccncc1)c1cccc(S(=O)(=O)N2CCc3ccccc32)c1
  104	-13	-27	108
O=C(NCCCc1ccccc1)c1ccc(O)cc1
  108	-5	-29	101
Cc1ccc(C2C(C#N)=C(N)Nc3oc(C)nc32)cc1 (stereo not given)
  103	-14	-30	105
O=C(COC(=O)/C=C/c1ccc(S(=O)(=O)N2CCCCCC2)cc1)Nc1ccc2[nH]c(=O)[nH]c2c1
  .	4	13	.
CN(CCO)c1ccc(-c2nc(-c3ccccc3)c(-c3ccccc3)[nH]2)cc1
  103	-95	-42	98
COc1ccc(N(Cc2cscn2)S(=O)(=O)c2cc(C)ccc2C)cc1
  106	-14	-24	102
c1ccc2nc3c(nc2c1)c1ccccc1n3CCN1CCOCC1
  101	4	-23	96
CCOc1cc(N2CCOCC2)c(OCC)cc1NC(=O)CN1c2ccccc2CC1C (stereo not given)
  99	14	-27	105
CCN1C(=O)S/C(=C/c2cc(C)n(-c3ccc(S(N)(=O)=O)cc3)c2C)C1=O
  101	-7	-117	105
O=C(Nc1ccccc1)OC1CCCCC1
  101	-4	.	106
O=C(CN1CCN(Cc2ccccc2)C1=O)NCCc1ccccc1
  103	-9	-2	107
Cc1cc(C)n(C(C)n2nc(C)cc2C)n1
  102	-13	-7	103
Cn1c(SCC(=O)c2ccc(F)cc2)nnc1C(O)c1ccccc1 (stereo not given)
  96	-8	-26	103
CCCCC1CCC(C(=O)Nc2nonc2-c2ccc(OCC)cc2)CC1 (stereo not given)
  106	-9	-14	100
COCCn1nnnc1CN(Cc1ccco1)Cc1cc2cc(OC)ccc2[nH]c1=O
  100	88	13	101
Cc1ccccc1-n1c(SCc2nnc(-c3cc4c(s3)CCCC4)o2)nnc1N1CCOCC1
  99	8	-35	98
Cc1ccc(C)c(SCC(=O)OCC(=O)c2ccc(F)cc2)c1
  103	-14	.	100
CC(C)CC(=O)Nc1ccc2ccccc2c1
  100	-35	-10	103
COc1ccc(-c2onc(C)c2C)cc1S(=O)(=O)NC1CCN(Cc2ccccc2)CC1
  102	22	-24	102
Nc1nc(COC(=O)c2ccc3ccccc3c2O)nc(Nc2ccccc2)n1
  106	-33	-35	97
Cn1cnc2c(=O)oc3ccc(S(=O)(=O)N4CCc5ccccc5C4)cc3c21
  103	10	-21	100
Cc1ccc(N2CN=C(c3ccccc3)NC2=S)cc1
  102	3	-14	99
N#C/C(=C\c1ccc(-c2ccc(Br)cc2)o1)C(=O)OC1CCCCC1
  107	-7	-65	100
CCOc1cc(/C=C2/SC(=O)NC2=O)ccc1OCC(=O)O
  102	6	-6	97
CC1CCC(COC(=O)CN2CCCCC2)C(C)C1 (stereo not given)
  99	-2	8	103
Cc1cc(C(=O)c2cccs2)c(N)s1
  110	66	3	114
CCOC(=O)CSC1=C(C#N)C(c2ccccc2Cl)C(C(=O)Nc2ccccc2OC)=C(C)N1 (stereo not given)
  110	.	-11	110
CC(C)N1CNc2nc3ccccc3n2C1
  101	8	-1	100
O=S1(=O)N=C(Nc2nncs2)c2ccccc21
  98	74	6	101
NCCNC(=O)Cc1ccc(O)cc1
  101	-3	-4	107
CCn1c2ccccc2c2cc(CNCC(C)O)ccc21 (stereo not given)
  103	88	-65	102
FC(F)(F)COc1ccc(-c2n[nH]c(=S)o2)cn1
  104	-46	-13	106
Cc1ccc(S(=O)(=O)N2CCCCC2)cc1-n1c(C)cc(C2N=C(N)Nc3nc4ccccc4n32)c1C (stereo not given)
  102	11	-11	106
COc1ccc(-c2nnc3n(Cc4ccccc4)c(=O)c4ccccc4n23)cc1
  102	12	11	104
CNS(=O)(=O)c1cc2c3c(cccc3c1)C(=O)NC2=O
  104	-14	-24	109
CCOC(=O)C1CCN(C(=O)Cc2ccc(C)cc2)CC1
  102	-2	7	101
OC(Cn1cncn1)c1ccc(Br)cc1Br (stereo not given)
  104	-17	-4	110
Cc1ccc(S(=O)Cc2ccc(C(=O)N3CCN(C(=O)c4ccco4)CC3)o2)cc1 (stereo not given)
  104	-5	-14	103
CCn1c(SCC(=O)N(C2CCCCC2)C2CCCCC2)nnc1C(C)C
  102	-9	11	102
COc1ccc2oc(=O)c(-c3cnc(C)s3)cc2c1
  103	-5	-16	110
CCc1ccccc1NC(=O)Nc1cc2sccc2n1CC
  100	-1	-30	102

# (next part)
# Results follow in this order: Polio RdRp inh	MbtI inh	MenB inh	Polio RdRp inh intensity
O=C(O)c1ccccc1-c1ccc(C(F)(F)F)cc1
  104	-9	.	106
COc1ccc(C(=O)/C(C)=N/O)cc1
  100	10	-26	99
O=C1NCCCCC1NS(=O)(=O)c1ccc2c(c1)OCCCO2 (stereo not given)
  106	5	-10	103
CC(C)Cn1c(N)c(C(=O)c2ccc(S(=O)(=O)N3CCCCC3)cc2)c(=O)[nH]c1=O
  103	-25	4	105
CCOC(=O)c1ccc(NC(=O)CC2SC(=O)N(CN3CCOCC3)C2=O)cc1 (stereo not given)
  102	1	8	103
Nc1c(C(=O)C23CC4CC(CC(C4)C2)C3)oc2ccccc12
  102	13	-17	109
COCC[N+]1(C)CCCCC1
  100	-11	-13	100
COc1cc2c(cc1N)CCCC2
  101	1	-34	101
c1coc(-c2nc3nc4ccccc4nc3n2CC2CCCO2)c1 (stereo not given)
  .	113	-17	.
CCc1ccc(NC(=O)Nc2ccc3c(c2)N(C)C(=O)c2ccccc2S3)cc1
  104	-6	-52	106
CC(C)CC(=O)Nc1c[nH]c(=O)[nH]c1=O
  99	-8	7	102
CCOCCn1ccc2c(OCc3cccnc3)cccc2c1=O
  103	13	-5	107
O=C(Nc1cc(Cl)nc(NC(=O)C2CCCC2)n1)C1CCCC1
  103	-2	.	106
Cc1ccc(-n2c(=O)c3ccccc3n3c(SCC4CCCCO4)nnc23)c(C)c1 (stereo not given)
  104	70	-26	101
NC(=S)NCC1CC(c2ccc(Cl)cc2Cl)=NO1 (stereo not given)
  98	36	-1	100
Cc1cccn2cc(CCNC(=O)CC3CCCCC3)nc12
  104	89	-8	100
CCOC(=O)CC1=C(C(=O)OCC)C2(C(=O)N(CC(N)=O)c3ccccc32)C(C(=O)OCC)=C(N)O1 (stereo not given)
  103	15	-20	101
O=C(Oc1ccc(-c2nnco2)cc1)c1cn2ccccc2n1
  102	-36	6	98
C/C(=N\N=C(N)N)c1ccco1
  98	19	7	96
Cc1csc(=O)n1CCC(=O)OC(C)C(=O)c1ccc(Br)cc1 (stereo not given)
  102	11	4	99
CC1CCCC(NC(=O)CC2Nc3ccccc3NC2=O)C1C (stereo not given)
  102	-8	-22	101
CCc1cccc(C)c1NC(=O)c1ccc(OC(C)=O)cc1
  107	.	0	109
CSc1nsc(SCC(=O)OC2CC(C)CCC2C(C)C)n1 (stereo not given)
  103	-8	-34	106
Cc1cc(C)nc(-n2nc(C)c3c2N(C)C(=O)CC3c2ccccc2Cl)n1 (stereo not given)
  101	5	2	101
CCCC(=O)O/N=C(\c1ccccc1)c1ccncc1
  104	-5	-23	99
C/C=C(\C)c1nnc(NC(=O)Cc2ccccc2)s1
  102	-15	-11	103
c1ccc(-c2cn3c4ccccc4nc3n2CCCN2CCOCC2)cc1
  99	.	5	103
Cc1[nH]nc(-c2ccc(S(=O)(=O)N(C)Cc3ccco3)s2)c1C
  101	44	-45	101
OCCP(c1ccccc1)c1ccccc1
  100	-26	61*	103
O=C(NC(NCCc1c[nH]c2ccccc12)(C(F)(F)F)C(F)(F)F)c1ccccc1
  101	.	-9	105

# Fetched by structure from the entries so far (three):
# Results follow in this order: Polio RdRp inh	MbtI inh	MenB inh	Polio RdRp inh intensity
Cc1cc(C)nc(-n2nc(C)c3c2N(C)C(=O)CC3c2ccccc2Cl)n1 (stereo not given)
  101	5	2	101
CCc1cccc(C)c1NC(=O)c1ccc(OC(C)=O)cc1
  107	.	0	109
OCCP(c1ccccc1)c1ccccc1
  100	-26	61*	103

# Following part
# Results follow in this order: Polio RdRp inh	MbtI inh	MenB inh	Polio RdRp inh intensity
Fc1ccc(-c2oncc2-c2nnnn2-c2ccc(Cl)cc2)c(F)c1
  102	-7	-7	101
Cc1ccc(C2CC(c3c(F)cccc3Cl)n3ncnc3N2)cc1C (stereo not given)
  103	-7	-16	104
Cc1ccc(S(=O)(=O)N2CCN(C(=O)CCN3C(=O)c4ccccc4C3=O)CC2)cc1
  102	-11	2	103
Cc1ccc(-c2ccc(=O)n(Cc3cc(=O)n4ccccc4n3)n2)cc1
  101	-15	-20	98
Cc1c2c(n3c(nc4ccccc43)c1C#N)N(c1ccccc1)CC2
  56	-6	-19	161
CC(OC(=O)C1=NNC(=O)CC1)C(=O)Nc1ccccc1-c1ccccc1 (stereo not given)
  102	-8	-70	106
CCOC(=O)c1ccc(NC(=O)c2ccc(CN3CC(=O)N4CCCCC4C3=O)cc2)cc1 (stereo not given)
  101	0	11	101
O=C1CC(c2ccco2)CC2=C1C(c1ccccc1)n1c(nc3ccccc31)N2 (stereo not given)
  102	2	-3	104
COC(=O)c1ccc(-c2ccco2)n1CC(=O)NC1CCCC1
  104	-7	8	105
Cc1cccc(-c2noc(CNC(=O)C(C)(C)Oc3ccc(Cl)cc3)n2)c1
  103	-3	-32	106
CN1CCN(CCNC(=O)c2ccc(-n3ccc4ccccc43)s2)CC1
  99	-164	3	100
Cc1ccc2oc(=O)c3cnn(CC(=O)N4CCc5ccccc5C4)c3c2c1
  102	-4	-20	103
COC(=O)/C=C1/N/C(=N\c2nc(C)cc(C)n2)N(c2ccc(C)c(C)c2)C1=O
  102	29	7	100
Cc1ccc(C(=O)N2CCN(c3ncnc4c3cnn4-c3ccccc3)CC2)cc1
  99	-13	-14	98
O=C(O)C1C2C=CC3(CN(Cc4cccc(Cl)c4Cl)C(=O)C13)O2 (stereo not given)
  99	7	-18	102
N#CC(C(=O)NCCc1ccccc1)c1nc2ccccc2nc1N1CCOCC1 (stereo not given)
  .	-7	-25	.
Brc1ccc(Nc2ncnc3c2cnn3-c2ccccc2)cc1
  100	15	10	100
CC(=O)Nc1cc(C)nn1C(C)(C)C
  101	4	3	104
CCCCNC(=O)Cn1c(=O)oc2ccccc21
  105	-1	-25	98
COc1cc2c(cc1OC)C(c1cccs1)N(C(=O)C1CC1)CC2 (stereo not given)
  103	12	1	99
COc1ccc(-c2nnc3ccc(SCC(N)=O)nn23)cc1
  103	42	-7	105
C=C(C)C(=O)Nc1ccc(O)cc1C(=O)O
  105	.	6	105
CCN(CC(=O)Nc1ccc(OC)cc1)C(=O)Cc1cccs1
  105	1	11	101
CN=c1scc(-c2cccs2)n1/N=C/c1ccccc1O
  109	3	-49	101
O=C1NC(=Nc2ccccc2)S/C1=C/c1cccs1
  99	4	-54	102
Cc1[nH]c2ccccc2c1C(=O)CN1C(=O)NC2(CCOc3ccccc32)C1=O (stereo not given)
  .	19	1	.
Cc1ccc2c(c1)nnn2C1CCN(CC(=O)N(c2ccccc2)c2ccccc2)CC1
  102	-2	4	101
Cc1sc2nc(C(C)C)n3c(=S)[nH]nc3c2c1C
  102	23	12	103
CC1CN(C(=O)CSc2nc3scc(-c4ccccc4)c3c(=O)n2N)CC(C)O1 (stereo not given)
  101	-7	-28	111
O=c1onc(-c2cccc(C(F)(F)F)c2)n1-c1ccccc1
  103	0	-18	101
CCN(CC)c1ccc(/C=C/C(=O)NCCN2CCC(N(C)C3CCCCC3C)CC2)cc1 (stereo not given)
  103	6	-47	104
Cc1cccc(CC(=O)Nc2cc(C)c3c(=O)oc4ccccc4c3n2)c1
  101	7	-6	102
COc1cccc(NC(=O)c2cnc(SC)n(C)c2=O)c1
  96	6	14	102
Cc1ccc(CNS(=O)(=O)N(C)C)cc1
  101	.	4	97
CC(=O)Nc1oc(-c2ccco2)c(-c2ccco2)c1C#N
  94	-197	0	103

# High-throughput results: PubChem, ICCB-Longwood Screening Facility, Harvard Medical School
